Assay outcomes deposited in PubChem BioAssay by Southern Research Institute.
Mtb H37Rv: Mycobacterium tuberculosis H37Rv growth inhibition, putative kinase inhibitor library, confirmatory dose response (AID 2842); M. tuberculosis H37Rv growth inhibition; higher % means a stronger effect; some inactives read as strong as hits; one-dose inhibition, % at 10 µg/mL; IC90 in µg/mL for titrated hits; 24,000 tested, 5.2% active;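 active = confirmed in a dose series; inconclusive = mostly over 85% at the one dose but not retested; inactive = below 85% or not confirmed; about a fifth of its hits are not listed in these tables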;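 also: bacteria incubated one week before Alamar blue readout; 0% = bacteria only wells and 100% = bacteria with high antibiotic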
Numbers without * were called inactive; ? = inconclusive.

SMILES | Mtb H37Rv
CCOCCCn1c(C)cn2c3c(=O)[nH]c(=O)n(C)c3nc12 | -5%
Cc1cnc(=O)[nH]c1SCc1ccccc1F | 3%
O=C(CSc1nc2c(c(=O)n1-c1ccc([N+](=O)[O-])cc1)SCC2)Nc1ccc(F)cc1 | 8%
Cc1cc(C)c(NC(=O)CSc2nc(N)c(NC(=O)c3ccccc3)c(=O)[nH]2)c(C)c1 | -3%
CCOC(=O)c1nn(-c2ccc(OC)cc2)c(=O)c2c(NC(=O)CCc3ccccc3)scc12 | 1%
CC(C)C(=O)Nc1ccc2c(c1)NC(=O)C(C)(C)CO2 | 0%
CC(=O)c1ccc(S(=O)(=O)NC2CC(=O)N(c3ccc4c(c3)OCCO4)C2)cc1 (stereo unspecified) | 11%
O=C(NCCc1csc2nc(-c3ccc(Cl)cc3)nn12)c1cccc(C(F)(F)F)c1 | -2%
O=C(CCCS(=O)(=O)c1ccccc1)Nc1nc2ccc([N+](=O)[O-])cc2s1 | 8%
Cc1ccc(-c2nnc(NC(=O)c3ccc(Cc4ccccc4)cc3)s2)cc1 | 9%
O=C(Nc1nnc(-c2ccc(Cl)cc2)s1)c1cccc(Br)c1 | 3%
CCOc1ccc(CC(=O)Nc2cccc(-c3ccc4nnc(C)n4n3)c2)cc1 | 71%
O=C(COc1ccc(Cl)cc1Cl)OCn1nnc2ccccc2c1=O | -9%
CCN(c1ccccc1)S(=O)(=O)c1ccc(C(=O)Nc2ccc3c(c2)C(=O)NC3=O)cc1 | 3%
Cc1cccc(Cn2cnc3sc4c(c3c2=O)CCC(C)C4)c1 (stereo unspecified) | -3%
COc1ccc(-n2ccn(CC(=O)Nc3ccc(C)cc3C)c(=O)c2=O)cc1 | -4%
Cc1ccc(NC(=O)c2cnc3n(c2=O)CCS3)cc1C | 7%
Cc1cccc(-c2nc(C(N)=O)c3[nH]c(=O)n(-c4ccc(C)c(C)c4)c3n2)c1 | -4%
Cc1cccc(NC(=O)CSc2ncnc3c2oc2ccccc23)c1 | 8%
COc1ccc(NC(=O)Cn2ccc3c(OC)cccc3c2=O)c(OC)c1 | 0%
COc1ccc(Cl)cc1N1CC(O)=C(c2nc3ccccc3s2)C1=N | 5%
COc1ccc2cc(CCNC(=O)c3ccccc3I)c(=O)[nH]c2c1 | -5%
O=C(c1ccc2c(c1)OCO2)N1CCN=C1SCc1ccc([N+](=O)[O-])cc1 | 27%
Cc1c(Cl)cccc1NC(=O)c1cnc2sccn2c1=O | -7%
CCOC(=O)c1nn(-c2ccccc2F)c(=O)c2c(NC(=O)Cc3cccc(C)c3)scc12 | -3%

Among those listed so far, 3 have a thiophene ring, fused or not:
SMILES | Mtb H37Rv
CCOC(=O)c1nn(-c2ccc(OC)cc2)c(=O)c2c(NC(=O)CCc3ccccc3)scc12 | 1%
Cc1cccc(Cn2cnc3sc4c(c3c2=O)CCC(C)C4)c1 (stereo unspecified) | -3%
CCOC(=O)c1nn(-c2ccccc2F)c(=O)c2c(NC(=O)Cc3cccc(C)c3)scc12 | -3%

Remaining list, next part.
SMILES | Mtb H37Rv
Cc1cc(C)c2c(N)c(C(=O)Nc3ccc(Oc4ccccc4)cc3)sc2n1 | -6%
Clc1ccccc1/C=N/Nc1ncnc2nc[nH]c12 | 15%
O=C(Nc1c(C(=O)Nc2ccc3c(c2)OCO3)oc2ccccc12)c1ccccc1F | 3%
O=C(CCc1nnc2n(Cc3ccc(Cl)cc3)c(=O)c3ccccc3n12)NCc1cccnc1 | -13%
CCOC(=O)c1nn(-c2ccccc2)c(=O)c2c(NC(=O)Cc3ccc(OC)cc3)scc12 | -7%
O=C(CCN1C(=O)/C(=C\c2ccco2)SC1=S)Nc1ccccc1C(=O)O | -18%
C=CCn1c(=N)c(-c2nc3ccccc3s2)cc2c(=O)n3ccccc3nc21 | 4%
COc1ccc(C(=O)NCCc2cc3ccc(C)cc3[nH]c2=O)cc1OC | -4%
COCCn1c(=NC(=O)CSCC(=O)Nc2nccs2)sc2cc(C(=O)OC)ccc21 | 0%
CC1Cc2nc(SCC(=O)Nc3ccccc3F)n(C)c(=O)c2S1 (stereo unspecified) | -11%
Cc1ccc(-n2ncc3c(=O)n(CC(=O)NCc4ccc5c(c4)OCO5)cnc32)cc1C | 3%
O=C(Cn1cc(S(=O)(=O)c2ccccc2)c(=O)c2cc(F)ccc21)Nc1cccc(Cl)c1 | 2%
COc1ccc2nc(-c3ccc(C)c(NC(=O)c4ccc(F)cc4F)c3)cn2n1 | -5%
COc1cc(OC)cc(C(=O)Nc2cc(=O)n(C)c(=O)n2C)c1 | -6%
Cc1ccc(-n2ncc3c(NNC(=O)c4ccccc4Cl)ncnc32)c(C)c1 | 15%
COc1ccc(NC2CC(=O)N(c3ccc(Cl)cc3Cl)C2=O)cc1 (stereo unspecified) | 7%
NC(=O)c1ccccc1NC(=O)CC1CCS(=O)(=O)C1 (stereo unspecified) | -14%
O=C(CSc1nnc(-c2ccncc2)o1)Nc1ccc2c(c1)OCO2 | -4%
CCOC(=O)c1[nH]c2ccccc2c1NC(=S)Nc1ccc(Cl)c(Cl)c1 | 77%
CC1(C)Cc2c(sc(NC(=O)c3ccc(Br)cc3)c2C#N)C(C)(C)N1 | 1%
CCOCC(=O)Nc1c(C(=O)Nc2ccc([N+](=O)[O-])cc2)oc2ccccc12 | 5%
COc1ccc(C(=O)Nc2sc3c(c2C(N)=O)CC(C)CC3)cc1OC (stereo unspecified) | -2%
COc1cccc2c(=O)n(CC(=O)Nc3ccc(F)cc3F)ccc12 | 4%
Nc1nc(SCC(=O)NCc2ccc3c(c2)OCO3)[nH]c(=O)c1NC(=O)c1ccco1 | -8%
Cc1ccc2sc(NNC(=O)c3cc(-c4cccs4)nc4ccccc34)nc2c1C | ?

Pulled by structure from the entries so far:
SMILES | Mtb H37Rv
CCOCC(=O)Nc1c(C(=O)Nc2ccc([N+](=O)[O-])cc2)oc2ccccc12 | 5%
O=C(CSc1nnc(-c2ccncc2)o1)Nc1ccc2c(c1)OCO2 | -4%
COc1ccc(C(=O)NCCc2cc3ccc(C)cc3[nH]c2=O)cc1OC | -4%

Following part
SMILES | Mtb H37Rv
NC(=O)COc1ccc2cc(-c3nc4ccccc4s3)c(=O)oc2c1 | 0%
O=C(CSc1ccc2nnc(-c3ccc(F)cc3)n2n1)N1CCN(c2ccccc2)CC1 | -5%
COC(=O)CSc1nnc2[nH]c(=O)c(C)c(C)n12 | -2%
COc1ccc(C(=O)Nc2c(N)nc(SCCN3CCCC3)[nH]c2=O)cc1 | -2%
CCS(=O)(=O)N1CCN=C1SCc1cccnc1 | -11%
COCCCN1C(=O)c2ccc(C(=O)OCC(=O)Nc3cc(C(F)(F)F)ccc3Cl)cc2C1=O | -7%
O=C(CCc1ccccc1)Nc1c(C(=O)Nc2ccccc2)oc2ccccc12 | 6%
COc1ccccc1NCC(=O)Nc1ncc(Cc2cccc(Cl)c2)s1 | -3%
O=C(Nc1c(C(=O)Nc2ccc3c(c2)OCO3)oc2ccccc12)c1ccc(Br)cc1 | 13%
CCN(c1ccccc1)S(=O)(=O)c1ccc(C(=O)Nc2ccc3ncsc3c2)cc1 | 15µg/mL*
Cn1c(=O)[nH]c(=O)c2c1nc(N1CCCCC1)n2CCSc1nc2ccccc2o1 | 4%
COc1ccc(NC(=O)c2oc3ccccc3c2NC(=O)c2ccccc2Br)c(OC)c1 | 8%
Cc1cc(NC(=O)c2cnc3scc(C)n3c2=O)no1 | -5%
CCCc1cc(-c2n[nH]c(C)c2-c2ccc(C(=O)OCC)o2)c(O)cc1OC | 10%
CC(=O)c1cccc(NC(=O)CSc2ccc(-c3ccc(Cl)cc3)nn2)c1 | 0%
COc1cc2c(=O)c(C(=O)c3ccc(C)cc3)cn(Cc3cccc(C)c3)c2cc1OC | -3%
CSc1ccc2nc(Nc3nnc(-c4ccco4)o3)sc2c1 | 76%
Cc1ccc(Cn2c(N3CCN(Cc4cccc(C)c4)CC3)nc3c2c(=O)[nH]c(=O)n3C)cc1 | -9%
COc1ccc(NC(=O)CSC2=NC3(CCCC3)Nc3ccccc32)cc1 | 1%
CCOC(=O)c1nn(-c2ccc(Cl)cc2)c(=O)c2c(NC(=O)c3ccccc3C(F)(F)F)scc12 | 11%
COCCN1C(=O)c2ccc(C(=O)OCC(=O)c3ccc(C)cc3)cc2C1=O | 10%
O=C(CSC1=N/C(=C/c2ccc3c(c2)OCO3)C(=O)N1c1ccccc1)c1ccccc1 | -4%
CC(=O)c1ccc(NC(=O)CSc2ccc3nnc(-c4ccc(Cl)cc4)n3n2)cc1 | -3%
O=C(CSc1nc2ccccc2[nH]1)Nc1ccc(F)cc1 | 79%
Cc1n[nH]c(=O)nc1Nc1ccc(S(N)(=O)=O)cc1 | 5%
Going on with the list:
SMILES | Mtb H37Rv
O=C(CCCN1C(=O)/C(=C/c2ccco2)SC1=S)Nc1ccccc1 | 3µg/mL*
Cc1ccc(Nc2nc(-c3ccc([N+](=O)[O-])cc3)nc3ccccc23)cc1 | -6%
CCCc1cc(=O)[nH]c2nnc(SCC(=O)Nc3ccc(C(=O)OC)cc3)n12 | -4%
Cc1ccc(NC(=O)CN2N=NC3C(=O)N(c4ccc(Cl)cc4)C(=O)C32)cc1C (stereo unspecified) | -17%
CC1CC(C)CN(c2ncnc3c2cnn3-c2ccc(F)cc2)C1 (stereo unspecified) | 10%
CCc1ccc(NC(=O)c2oc3ccccc3c2NC(=O)C(C)(C)C)cc1 | 6%
Cc1ccc(-c2csc(-n3[nH]c(-c4ccc([N+](=O)[O-])cc4)cc3=O)n2)cc1 | -6%
CCOC(=O)c1nn(-c2ccc(C)cc2)c(=O)c2c(NC(=O)Cc3ccc(OC)c(OC)c3)scc12 | -4%
Cc1ccc(N=C2NC(=O)/C(=C3\C(=O)N(C)c4ccccc43)S2)cc1C | -3%
Fc1cccc(Cn2cc3c(-c4ccc5c(c4)OCO5)nnc-3c3cc(F)ccc32)c1 | 30%
CCc1ccc(S(=O)(=O)NCCc2csc(-c3ccccc3)n2)cc1 | 29%
O=C(Nc1nc(-c2ccc3c(c2)OCCO3)cs1)c1ccc2c(c1)CCCC2 | 44%
Cc1nnc(SCc2ccc(Br)cc2)n(N)c1=O | 4%
Oc1ccc(CN2CCN(c3ccccc3F)CC2)c2cccnc12 | -10%
O=C1/C(=C/c2ccc(Cl)cc2)Oc2cc(O)ccc21 | 34%
NC(=O)Cn1c(=O)n(CCC(=O)NCCc2ccc(Cl)cc2)c(=O)c2sccc21 | 7%
C#CCn1c(=NC(=O)c2ccccc2I)sc2cc(NC(C)=O)ccc21 | 16%
CCOC(=O)C(C)Sc1nc2c(c(=O)[nH]c(=O)n2C)n1CC(O)COc1ccccc1 (stereo unspecified) | 59%
COc1ccc(-c2[nH]c3ccccc3c2SCCNC(C)=O)cc1 | 10%
CCOC(=O)CSc1nnc(NC(=O)c2cc(OC)c(OC)c(OC)c2)s1 | -9%
COc1ccc(-c2nnc3c4ccccc4n(Cc4ccccc4)cc2-3)cc1OC | -2%
Cc1ccc2cc(CCNC(=O)c3ccc(S(=O)(=O)N(C)C)cc3)c(=O)[nH]c2c1 | -7%
CCOc1ccccc1C(=O)NCCc1cc2cc(C)c(C)cc2[nH]c1=O | 1%
C#CCSc1nc2sc(C)c(C)c2c(=O)[nH]1 | -5%
COc1ccc(S(=O)(=O)NC2CC(=O)N(c3ccc(Cl)cc3)C2)cc1C (stereo unspecified) | 6%

Arranged by formula weight (largest number first): 3 of the compounds above.
SMILES | Mtb H37Rv
COc1ccc(S(=O)(=O)NC2CC(=O)N(c3ccc(Cl)cc3)C2)cc1C (stereo unspecified) | 6%
O=C(CCCN1C(=O)/C(=C/c2ccco2)SC1=S)Nc1ccccc1 | 3µg/mL*
CC1CC(C)CN(c2ncnc3c2cnn3-c2ccc(F)cc2)C1 (stereo unspecified) | 10%

Reformatted in CSV form: 2 of the compounds above.
canonical_smiles,Mtb H37Rv
COc1ccc(C(=O)Nc2sc3c(c2C(N)=O)CC(C)CC3)cc1OC (stereo unspecified),-2%
COc1cccc2c(=O)n(CC(=O)Nc3ccc(F)cc3F)ccc12,4%

Going on with the list:
SMILES | Mtb H37Rv
CSc1nnc(CNC(=O)c2ccccc2)n1-c1ccc(F)cc1 | 4%
CCCOc1cccc(C2C(C(N)=O)=C(C)Nc3ncnn32)c1 (stereo unspecified) | -15%
O=C1CN(C(=O)c2cc(Br)ccc2Cl)C(c2ccccc2)c2cc(F)ccc2N1 (stereo unspecified) | 26µg/mL*
Cc1ccc(Nc2nc(NCC3CCCO3)nc3nccnc23)cc1C (stereo unspecified) | -19%
O=C(Cn1cnc2c(cnn2-c2ccccc2)c1=O)Nc1cccc2ccccc12 | 6%
CCOc1ccccc1NC(=O)c1oc2ccccc2c1NC(=O)c1cccc(F)c1 | 7%
CCCCn1c2c(c(=O)[nH]c1=O)C(c1ccc(F)cc1)C1=C(COC1=O)N2 (stereo unspecified) | -3%
Cc1ccc(-c2nnc3ccc(SCC(=O)NCc4ccccc4)nn23)cc1 | 1%
CCOc1cccc2sc(NC(=O)c3ccccc3Br)nc12 | 46%
CSc1ccccc1NC(=O)c1cnc2scc(C)n2c1=O | 5%
COC(=O)CSc1nnc(-c2c[nH]c3ccccc23)n1-c1ccc(F)cc1 | -5%
COc1ccc(NC(=O)c2c(N)c(C(=O)c3ccc(F)cc3)n3ccccc23)cc1 | 2%
O=C(Nc1ccc(F)c(F)c1)c1cnc2sccn2c1=O | -7%
COc1ccc(C2=C/C(=C(/C#N)c3nc4ccccc4s3)c3cc(O)ccc3O2)cc1 | -17%
O=C(COc1ccc(Cl)cc1Cl)Nc1nc(-c2ccc3c(c2)OCCO3)cs1 | -9%
O=[N+]([O-])c1ccc(CSc2nnc3ccc(-c4ccccc4)nn23)cc1 | 2%
CC(=O)Nc1cccc(NS(=O)(=O)c2cc3c4c(c2)CCN4C(=O)CC3)c1 | 4%
O=C(CCCCCn1c(=O)[nH]c2ccsc2c1=O)NCc1cccnc1 | -7%
O=C(CC1CCS(=O)(=O)C1)Nc1ccc(Oc2ccccc2)cc1 (stereo unspecified) | 8%
CCCCOc1cccc(C(=O)Nc2nnc(-c3ccc(C)cc3C)o2)c1 | 2.6µg/mL*
Cc1ccc2c(c1)c1nnc(-c3ccc(F)cc3)c-1cn2Cc1cccc(F)c1 | 17%
Cn1cnnc1SCC(=O)Nc1ccccc1 | -2%

A portion of the library; count on the stated rates, not on these rows.
